Sa growth inh: S. aureus growth inhibition at 42 and 30 °C, primary screen, LtaS inhibitor project, RN4220, two temperatures; relative growth, % (concentration not given with the values); 0.53% of 170,000 active; OD600, 20 h, 42 °C; stronger effect = lower value; AID 720641, 2013;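 active = growth at 42 °C up to 50% and 20 or more points under that at 30 °C, or under 10% at both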;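 note: 300 nL library stock went into each well; scaled to the means of positive and negative controls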
HCMV UL50-53 inh: inhibitors of HCMV UL50-UL53 interaction, biochemical, HTRF; normalized percent inhibition; inhibition, % (no concentration beside the values); 0.15% of 190,000 active;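 active = both replicates at 50% or more, plus weaker picks with an unusually low signal ratio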;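 note: stock transfer was 100 nL into about 20 µL; 0% = negative control wells and 100% = wells with untagged competitor protein; inactives centre near -12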
GIV Gai3 FP: inhibitors of GIV peptide binding to Galpha-i3, primary screen, biochemical, fluorescence polarization, FITC-GIV GBA peptide, rat Galphai3 | Guanine nucleotide-binding protein G(i) subunit alpha-3 (Rattus norvegicus), P08753 | 90 min; stronger effect = lower value; scaled: aluminum fluoride 0%, vehicle 100% | percent of control (FP), % (test concentration not listed) | 0.42% of 210,000 active | AID 1224905, 2016;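 active = replicate mean at 85% of control or lower, very high polarization wells dropped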;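 note: wells of about 15 µL received 100 nL stock; the first replicate is given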
Target sequence (P08753 whole entry, looked up): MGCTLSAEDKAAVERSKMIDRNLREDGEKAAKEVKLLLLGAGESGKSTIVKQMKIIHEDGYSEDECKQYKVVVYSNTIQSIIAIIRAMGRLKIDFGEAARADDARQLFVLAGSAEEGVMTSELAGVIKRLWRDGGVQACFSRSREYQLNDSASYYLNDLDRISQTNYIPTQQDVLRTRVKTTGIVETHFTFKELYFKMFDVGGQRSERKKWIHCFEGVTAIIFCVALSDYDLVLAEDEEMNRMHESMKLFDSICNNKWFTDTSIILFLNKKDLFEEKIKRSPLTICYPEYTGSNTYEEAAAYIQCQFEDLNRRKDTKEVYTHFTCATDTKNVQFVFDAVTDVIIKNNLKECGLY
Sa growth inh second temp: second read-out of Sa growth inh, no call of its own (marks repeat the call); relative growth, %; measured here: growth at 30 °C;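 optical density after 20 h as mean of two plates; 100% = untreated growth and lower means inhibition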
* hit, by the source's call; . = not tested or not shown; & = joins results of further samples. Rows are unselected. About 0.82% of those tested had a hit in this group.

SMILES	Sa growth inh	Sa growth inh second temp	HCMV UL50-53 inh	GIV Gai3 FP
CCN(CC)C(=O)Cn1ccn2nc(-c3ccc(Cl)cc3)cc2c1=O	.	.	-16.2	100.8
CC(C)CN1C(=O)C(O)(c2nnc(-c3ccccc3)o2)c2ccccc21 (centres undefined)	115.8	92.6	-7.0	.
COc1ccc(Cn2[nH]nnc2=S)cc1	114.3	102.7	-10.4	97.6
CCOc1ccc(CCNC(=O)Cn2c(-c3cccs3)cc3ccccc32)cc1OCC	100.3	88.8	.	105.5
COc1cc2nc(SCc3ccc(F)cc3)n3nc(CCn4c(C)nc5ccccc54)nc3c2cc1OC	115.3	79.8	6.2	102.3
CCCS(=O)(=O)c1ccc(NCCc2c[nH]c3ccc(OC)cc23)nn1	.	.	-16.1	95.4
O=C1Nc2ccccc2S/C1=C/c1ccc(C(=O)N2CCCCC2)cc1	88.8	77.4	.	103.5
NCCC1CCCC(CCN)N1 (centres undefined)	.	.	-38.5	99.0
Cc1cccc(C(=O)N2CCc3cc(CNC(=O)CCc4ccccc4)ccc32)c1	96.3	79.0	.	101.4
O=C(c1ccc(F)c(F)c1)N1CCN(S(=O)(=O)c2cc3c4c(c2)CCN4C(=O)CC3)CC1	.	.	-21.5	106.7
CC(C)(C)NC(=O)c1cccc2c1C(=O)c1ccccc1-2	85.3	72.8	-46.3	102.8
OC(CN1CCNCC1)Cn1c2ccccc2c2ccccc21 (centres undefined)	100.8	112.6	-25.1	101.4
CC12CCCC(C(=O)O)(CCC1)C2	133.1	97.2	-0.1	103.6
CCOCCCNC(=O)C(Cc1ccccc1)NS(=O)(=O)c1ccc2c(c1)c(=O)n(C)c(=O)n2C (centres undefined)	97.7	88.8	-9.2	106.5
CCOC(=O)N1CCN(CC(=O)c2ccc3c(c2)CCN3C(C)=O)CC1	94.8	84.5	1.4	103.0
COc1cc2ncnc(NC3CCN(Cc4ccccc4)CC3)c2cc1OC	106.4	83.3	-19.4	100.7
NC(c1ccccc1)c1ccccc1	95.4	101.0	12.9	.
COc1cccc(CNC(=O)CCS(=O)(=O)c2cccs2)c1	99.7	91.1	2.9	106.5
CC(=O)NCCc1nc2cc(NC(=O)COc3cccc(C)c3)ccc2n1C	.	.	-27.8	106.7
Cc1c(-c2nc(-c3ccc4c(c3)OCO4)no2)nnn1-c1cccc(C(F)(F)F)c1	103.2	87.0	.	104.9
CC(=O)Nc1ccc(/C=c2\sc3nc4ccccc4n3c2=O)cc1	91.5	82.0	-26.0	106.7
CCOc1ccc(NC(=O)C2CC(=O)C(C(=O)OC)=C3C(=O)NCCN32)cc1 (centres undefined)	101.3	94.5	-24.6	103.1
O=S(=O)(c1cccc(NC(=S)N2CCN(c3ccc(F)cc3)CC2)c1)C(F)F	114.5	97.3	6.8	104.8
CC1(C)CC2CC(C)(CN2C(=O)COC(=O)c2ccc(O)cc2)C1 (centres undefined)	101.4	91.7	10.0	.
O=C1N=C(N2CCCC2)S/C1=C/c1cccc(Cl)c1	101.5	72.2	-42.1	.
COCCNC(=O)c1cc2occc2c(Nc2ccccc2)n1	.	.	-21.9	104.6
Cc1ccc(-c2cc(C(=O)O)c3ccccc3n2)o1	90.6	94.8	-24.8	.
Cc1cccc(Nc2ccc(-c3ccccc3)nn2)c1	107.9	100.4	2.4	105.3
Cc1ccc(S(=O)(=O)c2nc(N3CCCC(C)C3)sc2Cl)cc1 (centres undefined)	90.5	92.3	-21.8	.
Nc1ccc(-c2nc3ccccc3s2)cc1	62.8	68.3	-35.1	.
Cn1[nH]c(=O)c2cc(Cl)c(Cl)cc2c1=O	98.4	84.9	-37.6	106.6
O=C(NCCO)C(=O)Nc1c2c(nn1-c1ccc(F)cc1)CSC2	95.2	91.7	.	104.9
CCc1nc(C)c(-c2ccccc2)c(=O)[nH]1	106.2	96.5	5.0	.
CC1CCCCN1C(=O)c1cc2nc3c(c(C(F)(F)F)n2n1)CCc1ccccc1-3 (centres undefined)	119.0	77.6	-13.3	102.6
O=C1CN(C(=O)Nc2ccccc2C(F)(F)F)C(c2ccccc2)c2c(sc3c2CCCC3)N1 (centres undefined)	124.3	107.9	-8.3	101.4
Cn1c(=O)cc(OCCCC(=O)Nc2ccc(F)cc2)c2ccccc21	106.6	108.8	18.7	109.4
Cc1cc(C)cc(NC(=O)NC(C)C2CCCO2)c1 (centres undefined)	110.5	97.0	-20.1	107.5
CC(=O)N1CCc2cc(CNS(=O)(=O)c3ccc(Br)s3)ccc21	71.5	77.0	.	102.3
CN(CCCNC(=O)c1nc(-c2nn(-c3ccccc3)c(=O)n(C)c2=O)no1)C1CCCCC1	.	.	-68.9	99.6
CN(C(=O)COC(=O)c1cccnc1Nc1cccc(C(F)(F)F)c1)C1CCS(=O)(=O)C1 (centres undefined)	114.2	96.0	8.1	.
O=C(Nc1nc([N+](=O)[O-])cs1)c1cc2ccccc2o1	.	.	-45.2	107.4
O=S(=O)(Nc1ccc(-c2nc3ccccc3o2)cc1)c1ccccc1	115.3	51.2	12.8	109.0
CCOC(=O)NC1(Nc2ccccc2Cl)Oc2ccccc2O1	79.1	81.9	.	100.7
Cc1c(C(=O)OCC#N)oc2ccc(Br)cc12	79.2	92.5	-10.3	.
NC(=O)Cn1c(=O)n(CCc2nc(-c3ccccc3)no2)c(=O)c2ccccc21	95.4	102.1	-10.7&-5.3	108.7&105.8
Cc1cc(C)cc(N2C(=O)CC(N(C(=O)c3ccco3)c3cc(C)cc(C)c3)C2=O)c1 (centres undefined)	88.5	96.9	8.4	109.7
CCOC(=O)c1c(CN2CCN(C)CC2)n(-c2ccccc2)c2cc(Br)c(O)cc12	.	.	-3.5	101.1
Cc1cc(NC(=O)Cn2nc3c(cc2=O)CCCC3)ccc1Br	132.0	94.8	2.5	.
COc1ccc2nc(NC(=O)CCCN3C(=O)C4C5C=CC(C5)C4C3=O)sc2c1 (centres undefined)	107.3	98.3	4.6	106.3
CC1(O)c2ccccc2C(=O)N1CCc1cccc2ccccc12 (centres undefined)	118.7	98.5	2.2	.
CC(C)OCCCNC(=O)Cc1csc2nc(-c3ccc(F)cc3)cn12	.	.	-23.6	104.0
CCOC(=O)c1sc(S(C)=O)c2c1CCCC2=O (centres undefined)	28.0	42.6	-118.2	107.4
CC(C)(C)C1CCc2nc(NC(=O)CC#N)sc2C1 (centres undefined)	110.8	101.9	2.9	.
COc1cc(-c2nc3sc4c(c3c(=O)[nH]2)CCCC4)ccc1OCc1cc(=O)n2nc(C)sc2n1	101.4	97.9	3.1	109.7
Cc1sc(N)c(C(=O)c2ccc(Cl)cc2)c1C	97.1	84.5	-14.0	101.9
O=C(CC1(C(=O)O)CCCC1)N1CCOCC1	101.8	98.8	-6.8	.
Cc1nn(-c2ccccc2)c2nc(C(F)(F)F)[nH]c(=O)c12	110.7	92.4	-2.7	.
CCC1OC(c2cccc(OC)c2)=Nc2ccccc21 (centres undefined)	112.0	91.8	-16.2	.
O=C(C(F)F)N1CCN(c2ccccc2)CC1	110.9	90.1	-19.2	95.4
Cc1nn(-c2ccccc2Cl)c2sc(C(=O)N3CCCC3)cc12	101.2	87.7	8.4	.

Of the compounds above, these have a COOH group:
SMILES	Sa growth inh	Sa growth inh second temp	HCMV UL50-53 inh	GIV Gai3 FP
CC12CCCC(C(=O)O)(CCC1)C2	133.1	97.2	-0.1	103.6
Cc1ccc(-c2cc(C(=O)O)c3ccccc3n2)o1	90.6	94.8	-24.8	.
O=C(CC1(C(=O)O)CCCC1)N1CCOCC1	101.8	98.8	-6.8	.

Going on with the list:
SMILES	Sa growth inh	Sa growth inh second temp	HCMV UL50-53 inh	GIV Gai3 FP
COCCCNC(=O)c1cc2cc(S(=O)(=O)N3CCCCC3)ccc2n1C	75.2	84.8	.	98.3
Oc1ccccc1C=Nc1ccccc1Cl	91.3	81.9	-5.6	.
O=C(NCCN1CCOCC1)c1ccccn1	96.8	85.2	-11.5	.
Cn1c(=O)oc2cc(S(=O)(=O)NCCN3CCCCCC3)ccc21	.	.	3.3	96.4
COc1ccc(-n2nc(N3CCC(C(=O)NCc4cccnc4)CC3)ccc2=O)cc1	.	.	-80.7	104.0
Clc1ccc2nc(CSc3ncccn3)cn2c1	100.1	99.1	16.5	.
S=C(NCCc1ccccc1)c1ccccc1	101.2	88.5	-26.0	105.2
O=C(Nc1ccc(F)cc1)C1CCN(c2nc3ccccc3nc2C(F)(F)F)CC1	120.6	97.4	11.6	108.3&113.2
COc1ccccc1C(=O)Nc1ccc(C(=O)OCc2cc(=O)n3ccsc3n2)cc1	91.2	88.4	.	100.6
O=C(CN1CCN(c2ccccn2)CC1)N1CCc2ccccc2C1	92.2	98.3	-1.5	.
O=C(/N=C1/SCCN1CC(=O)c1ccccc1)Nc1ccccc1	95.6	102.6	2.5	102.9
CCN(CC)S(=O)(=O)c1ccc(N2CC(C)OC(C)C2)nc1 (centres undefined)	84.3	93.7	13.5	.
NC(=S)N/N=C/c1c[nH]c2ccccc12	80.0	69.6	-53.3	98.1
CC(C)NC(=O)CSc1ccccc1C(=O)Nc1ccc(-n2cnnn2)cc1	102.0	89.2	12.7	.
CC1CCC(NC(=O)c2oc(=O)c3ccccc3c2-c2ccccc2)CC1 (centres undefined)	100.1	94.6	.	103.9
COc1cccc(/C([O-])=N\c2c[n+](-c3ccc(C)cc3)no2)c1	94.3	81.6	-100.9	.
COC(=O)Cn1c(C)cc(C)c(C#N)c1=O	106.7	97.2	.	98.4
O=C(COc1ccc(Cl)cc1)N1CCC2(CC1)Nc1cc(F)ccc1-n1cccc12	.	.	-21.6	106.8
CC(C)(O)/C(=C/C#N)n1cccn1	75.2	102.0	4.9	.
COC(=O)C(NC(=O)C(Cc1c[nH]c2ccccc12)NC(=O)OC(C)(C)C)C(C)C (centres undefined)	.	.	-4.7	102.0

Seven entries out of the list above, arranged by the number in GIV Gai3 FP, lowest first.
smiles	Sa growth inh second temp	GIV Gai3 FP
CCCS(=O)(=O)c1ccc(NCCc2c[nH]c3ccc(OC)cc23)nn1	.	95.4
NCCC1CCCC(CCN)N1 (centres undefined)	.	99.0
COC(=O)C(NC(=O)C(Cc1c[nH]c2ccccc12)NC(=O)OC(C)(C)C)C(C)C (centres undefined)	.	102.0
CCOc1ccc(NC(=O)C2CC(=O)C(C(=O)OC)=C3C(=O)NCCN32)cc1 (centres undefined)	94.5	103.1
O=S(=O)(c1cccc(NC(=S)N2CCN(c3ccc(F)cc3)CC2)c1)C(F)F	97.3	104.8
Cc1cccc(Nc2ccc(-c3ccccc3)nn2)c1	100.4	105.3
CC(=O)Nc1ccc(/C=c2\sc3nc4ccccc4n3c2=O)cc1	82.0	106.7

The list continues.
SMILES	Sa growth inh	Sa growth inh second temp	HCMV UL50-53 inh	GIV Gai3 FP
COC(=O)c1cc2occc2n1Cc1nc(-c2cccc(Cl)c2)oc1C	103.5	84.7	-20.3	108.6
COc1ccc(Cc2nc3ccc(C(=O)NCCc4ccccc4)cc3o2)cc1	96.0	86.6	.	103.3
CCn1c(CN2CCCCC2)nc2cc(NC(=O)COc3ccc(C(C)(C)C)cc3)ccc21	107.8	87.5	1.1	102.1
Cn1cc(C(=O)Nc2ccc(C#N)cc2)c2ccccc2c1=O	93.8	89.5	-15.3	106.2
Cc1ccccc1NC(=S)Nc1cc(NS(C)(=O)=O)ccc1C	94.8	92.1	1.7	108.7
Clc1cccc2c(N3CCN(Cc4ccccc4)CC3)cnnc12	114.7	85.7	-91.4	103.2
Cc1nc(-c2ccc(S(=O)(=O)N(Cc3ccccc3)C(C)C)cc2)co1	112.6	86.7	.	109.7
CCOC(=O)c1cc(-c2ccccc2)n(CCC(=O)NCc2ccccc2Cl)c1C	138.0	101.3	.	99.0
Cc1ccc(O)c(NC(=O)c2nc3nc(C)cc(C(F)F)n3n2)c1	110.4	98.0	6.2	99.9
Cc1ccc(C)c(NCc2cn[nH]c2-c2ccc(Br)cc2)c1	104.7	72.9	.	103.6
CCC(c1ccccc1)c1nnc(NC(=O)OC)s1 (centres undefined)	99.5	103.0	18.6	104.2
CC1(C)CN(c2ccc(CC#N)cc2)C1=O	.	.	-6.6	102.5
CCCc1nnc(NC(=O)c2cc(=O)c3cc(F)ccc3o2)s1	.	.	-17.6	99.4
CCN1CCN(C(=O)c2nc(-c3cccnc3)no2)CC1	100.9	97.6	-9.5	106.4
CNC(=O)C1Cc2ccccc2CN1S(=O)(=O)c1cccs1 (centres undefined)	92.8	95.8	4.4	.
Cc1c(CN2CC3(C)CC2CC(C)(C)C3)c(=O)n(-c2ccccc2)n1C (centres undefined)	83.3	81.2	-15.9	104.7
NC(=O)COc1ccc(Nc2nnc(-c3ccc(Cl)cc3)c3ccccc23)cc1	.	.	6.6	99.1
O=c1[nH]cnc2sc3c(c12)CN(Cc1ccccc1)CC3	107.5	79.5	-18.2	95.8

Record cards (already shown). Values in the order: Sa growth inh, Sa growth inh second temp, HCMV UL50-53 inh, GIV Gai3 FP
CCn1c(CN2CCCCC2)nc2cc(NC(=O)COc3ccc(C(C)(C)C)cc3)ccc21 is listed with 107.8, 87.5, 1.1, 102.1
COC(=O)c1cc2occc2n1Cc1nc(-c2cccc(Cl)c2)oc1C is listed with 103.5, 84.7, -20.3, 108.6
